MITF inhib: inhibitors of MITF, primary screen, MITF inhibitor project, cell-based, luminescence | TRPM1 promoter luciferase, 24 h | inhibition, % (concentration not given with the values) | hit rate 0.28% among 37,000 | AID 2240, 2010;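 active = most replicates at 85% or more, or half of them and the mean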;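 note: human melanocyte line stably carrying TRPM1 promoter luciferase reporter; 0% = vehicle wells and 100% = a positive control; the first replicate is given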
YB-1 expression: inhibitors of YB-1 gene expression, primary screen, cell-based, fluorescence; U2OS, qRT-PCR YB-1 vs CDIP delta delta Cp, 16 h; active compounds read high; zero = DMSO, each unit about twofold; delta delta Cp (YB-1 minus CDIP) (test concentration not listed); hit rate 0.37% among 30,000;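 active = delta delta Cp rounded down to an integer at or above 3, about 3 SD of DMSO wells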;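 note: higher means less YB-1 transcript or more CDIP transcript relative to DMSO; stock transfer was 100 nL into about 100 µL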
PD-1 reversal: activators reversing PD-1 mediated T-cell inhibition, primary screen, luminescence, primary human CD4 T cells, PD-L1 beads; 29,000 tested, under 10 active; activation, % (concentration not given with the values); CellTiter-Glo 96 h;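 active = replicate mean of 50% or more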;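 note: 0% = median vehicle wells and 100% = positive control; 100 nL library stock added to about 50 µL; numbers are from one replicate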
Shh pathway inh: Hedgehog pathway signaling inhibitors, primary screen, luminescence, Shh-LIGHT2 cells, Gli-luciferase | Shh-LIGHT2 Gli-luciferase reporter, 30 h | inhibition, % (no concentration beside the values) | hit rate 2.1% among 22,000 | AID 2313, 2010;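 active = replicate mean of 65% or more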;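 note: pathway switched on by Shh-conditioned medium diluted 1 in 25 in low serum; 100 nL library stock added to about 40 µL; 0% = median of neutral wells and 100% = positive control level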
Numbers without * were called inactive; · = no result given.

Every second line gives: YB-1 expression, Shh pathway inh, PD-1 reversal, MITF inhib
- C[C@@H]1CN([C@H](C)CO)C(=O)c2cc(NC(=O)Nc3cccc4ccccc34)ccc2O[C@@H]1CN(C)Cc1ccc(Cl)c(Cl)c1
  0.16, 3, -5.4, 27
- Cc1nnc(SCc2cc(=O)[nH]c(N3CCN(Cc4ccccc4)CC3)n2)s1
  ·, ·, 0.0, -2
- C[C@@H]1CN([C@H](C)CO)C(=O)c2cc(NC(=O)NC3CCCCC3)ccc2O[C@@H]1CN(C)C(=O)NC1CCCCC1
  0.29, -6, 0.8, -1
- CCN=C1SC(CC(=O)Nc2sc3c(c2C(=O)OCC)CCCC3)C(=O)N1CC (stereo unspecified)
  -0.12, 3, -0.6, 18
- COc1ccc(S(=O)(=O)N(C)C[C@H]2Oc3ccc(NC(=O)c4ccncc4)cc3C(=O)N([C@H](C)CO)C[C@H]2C)cc1
  -0.24, ·, 1.2, -18
- COc1ccc(NC(=O)Nc2ccc3c(c2)C(=O)N([C@@H](C)CO)C[C@@H](C)[C@H](CN(C)S(=O)(=O)c2cn(C)cn2)O3)cc1
  0.21, 6, 0.6, -4
- Cc1c(Br)c([N+](=O)[O-])nn1CC(=O)Nc1sc2c(c1C#N)CCCC2
  ·, ·, -1.3, 43
- C[C@@H]1CN([C@@H](C)CO)C(=O)Cc2cc(NC(=O)Nc3ccc4c(c3)OCO4)ccc2O[C@@H]1CN(C)Cc1ccc(Oc2ccccc2)cc1
  -0.0011, 48, -2.6, 35
- COc1ccc(CN(C)C[C@H]2Oc3ccc(NC(=O)Nc4cccc5ccccc45)cc3C(=O)N([C@@H](C)CO)C[C@@H]2C)cc1
  0.33, 0, -0.6, -3
- Cc1noc(C)c1S(=O)(=O)Nc1ccc2c(c1)CC(=O)N([C@H](C)CO)C[C@H](C)[C@H](CN(C)Cc1ccc(Cl)c(Cl)c1)O2
  -0.011, -3, 1.2, -23
- C[C@@H]1CN([C@@H](C)CO)C(=O)c2cccc(NC(=O)Nc3ccc(C(F)(F)F)cc3)c2O[C@@H]1CN(C)CC1CC1
  0.47, 11, -0.7, -6
- CS(=O)(=O)N(CC(=O)Nc1ccc(Br)c(Cl)c1)c1ccc(F)cc1
  ·, ·, -5.9, 31
- C[C@@H]1CN([C@@H](C)CO)C(=O)Cc2cc(NC(=O)Nc3ccccc3)ccc2O[C@@H]1CN(C)Cc1ccc(C(=O)Nc2ccccc2N)cc1
  -0.14, ·, -3.9, -10
- O=C(Oc1ccc(Cl)cc1)c1csc(C2COc3ccccc3O2)n1 (stereo unspecified)
  -0.19, -9, -0.6, -42
- Cc1ccc([N+](=O)[O-])cc1NC(=O)CN(c1cc(C(F)(F)F)ccc1Cl)S(C)(=O)=O
  ·, ·, 0.4, -16
- COc1ccc(CC(=O)Nc2ccc(NC(=O)c3ccco3)cc2)cc1OC
  ·, ·, -6.5, -21
- Cc1ccc(S(=O)(=O)Nc2cccc3c2O[C@H](CN(C)S(=O)(=O)c2ccc(F)cc2)[C@@H](C)CN([C@@H](C)CO)C3=O)cc1
  0.13, -4, 2.0, -8
- COC(C)(C)CCCC(C)C/C=C/C(C)=C/C(=O)O (stereo unspecified)
  -0.16, -55, 4.5, -7
- N#Cc1c(NC(=O)/C=C/C(=O)O)sc2c1CCC2
  0.2, -4, 0.3, -14
- C[C@@H]1CCCCO[C@H](CN(C)Cc2ccc(C(F)(F)F)cc2)[C@@H](C)CN([C@H](C)CO)C(=O)c2cc(NS(=O)(=O)c3ccc(F)cc3)ccc2O1
  0.049, 6, ·, 24
- Cc1c(NC(=O)c2ccccc2N(C)S(=O)(=O)c2ccccc2)c(=O)n(-c2ccccc2)n1C
  ·, ·, 0.4, -8
- C[C@@H]1CN([C@@H](C)CO)C(=O)c2cc(NC(=O)CCC(F)(F)F)ccc2O[C@@H]1CN(C)C(=O)Nc1ccc(F)cc1
  -0.21, -33, -1.4, -12
- C[C@@H]1CN([C@H](C)CO)C(=O)c2cccc(NC(=O)C3CCCCC3)c2O[C@@H]1CN(C)C(=O)Nc1ccccc1
  0.043, -16, 0.0, -3
- C[C@H]1CN([C@@H](C)CO)C(=O)c2cc(NC(=O)Nc3cccc4ccccc34)ccc2O[C@H]1CN(C)Cc1ccncc1
  0.09, ·, -3.2, 7
- CC(C)NC(=O)N(C)C[C@@H]1Oc2ccc(NS(=O)(=O)c3cn(C)cn3)cc2C(=O)N([C@@H](C)CO)C[C@H]1C
  0.13, -14, 1.8, 10
- COc1ccccc1-c1coc2cc(OC)c(OC)c(OC)c2c1=O
  -0.25, -30, ·, -17
- C[C@H]1CN([C@@H](C)CO)C(=O)Cc2cc(NS(=O)(=O)c3cn(C)cn3)ccc2O[C@H]1CN(C)C(=O)Nc1cccc2ccccc12
  -0.54, 49, 1.5, -11
- CCn1c(SCC(=O)Nc2cc(Cl)cc(Cl)c2)nnc1-c1cccs1
  ·, ·, 2.9, 14
- COC(=O)c1c(NC(=O)COc2c(C)cccc2C)sc2c1CCCC2
  ·, ·, -2.3, 24
- COc1ccc(NC(=O)CSc2ncn(-c3ccccc3)n2)cc1Cl
  ·, ·, 1.3, -6

Full records as entered above.
Entry for `Cc1ccc(S(=O)(=O)Nc2cccc3c2O[C@H](CN(C)S(=O)(=O)c2ccc(F)cc2)[C@@H](C)CN([C@@H](C)CO)C3=O)cc1` = YB-1 expression: 0.13; Shh pathway inh: -4; PD-1 reversal: 2.0; MITF inhib: -8
Entry for `C[C@@H]1CCCCO[C@H](CN(C)Cc2ccc(C(F)(F)F)cc2)[C@@H](C)CN([C@H](C)CO)C(=O)c2cc(NS(=O)(=O)c3ccc(F)cc3)ccc2O1` = YB-1 expression: 0.049; Shh pathway inh: 6; PD-1 reversal: ·; MITF inhib: 24

Additional records follow.
Every second line gives: YB-1 expression, Shh pathway inh, PD-1 reversal, MITF inhib
- C[C@H]1CN([C@@H](C)CO)C(=O)Cc2cc(NC(=O)CCCCCC(=O)Nc3ccccc3N)ccc2O[C@@H]1CN(C)C
  -0.99, ·, 1.6, 4
- O=C(O)CCC(=O)Nc1cccc(C(=O)c2ccccc2)c1
  ·, ·, 1.0, -6
- C[C@H]1CN([C@@H](C)CO)C(=O)c2cccc(NS(=O)(=O)c3ccccc3)c2O[C@H]1CN(C)Cc1ccc(C(F)(F)F)cc1
  0.15, 1, 1.6, -13
- C[C@@H]1CN([C@H](C)CO)C(=O)c2cc(NC(=O)C3CC3)ccc2O[C@H]1CN(C)Cc1ccc(Cl)c(Cl)c1
  -0.034, -5, 1.0, -2
- COc1ccc(S(=O)(=O)N(C)C[C@@H]2Oc3ccc(NC(=O)NC(C)C)cc3C(=O)N([C@@H](C)CO)C[C@@H]2C)cc1
  -0.41, -15, -0.2, -5
- COc1ccc(-c2nc(NC(=O)CSc3nnc(C)s3)ns2)cc1
  ·, ·, -1.2, -72
- C=CCn1c(SCC(=O)O)nnc1-c1ccccc1
  ·, ·, 1.4, -7
- Cc1noc(C)c1NC(=O)N(C)C[C@H]1Oc2c(NC(=O)C3CCCCC3)cccc2C(=O)N([C@H](C)CO)C[C@H]1C
  0.25, -38, 1.4, -7
- Cc1noc(C)c1NC(=O)Nc1ccc2c(c1)CC(=O)N([C@H](C)CO)C[C@@H](C)[C@@H](CN(C)S(=O)(=O)c1ccccc1)O2
  0.13, -6, 1.7, -3
- Cc1cc(=O)[nH]c(SCC(=O)Nc2ccc([N+](=O)[O-])cc2)n1
  ·, ·, 0.7, -79
- COC(=O)C1C(c2ccc(OC)cc2)C(C(=O)OC)S(=O)(=O)CS1(=O)=O (stereo unspecified)
  -0.031, 30, -1.1, -16
- CCC(Sc1nc(C)cc(C)n1)C(=O)N1c2ccccc2Sc2ccccc21 (stereo unspecified)
  ·, ·, -2.3, 65
- C[C@@H]1CN([C@H](C)CO)C(=O)c2cc(NC(=O)C3CCCCC3)ccc2O[C@H]1CN(C)Cc1ccc(-c2ccccc2)cc1
  0.08, ·, -3.1, 6
- C[C@H]1CN([C@@H](C)CO)C(=O)Cc2cc(NS(=O)(=O)c3cccs3)ccc2O[C@@H]1CN(C)C(=O)Nc1ccccc1
  -0.14, 64, 0.2, -11
- C[C@@H]1CCCCO[C@@H](CN(C)CC2CCCCC2)[C@@H](C)CN([C@H](C)CO)C(=O)c2cc(NC(=O)CCCN(C)C)ccc2O1
  -0.26, -8, ·, 1
- COc1ccc(S(=O)(=O)Nc2ccc3c(c2)CC(=O)N([C@@H](C)CO)C[C@H](C)[C@@H](CN(C)S(=O)(=O)c2cccs2)O3)cc1
  -0.46, 44, 0.1, 0
- CNC[C@H]1Oc2ccc(NC(=O)CCC(F)(F)F)cc2C(=O)N([C@H](C)CO)C[C@H]1C
  0.062, -1, ·, 3
- C[C@@H]1CN([C@H](C)CO)C(=O)c2cccc(NC(=O)Nc3ccc(C(F)(F)F)cc3)c2O[C@H]1CN(C)Cc1ccccc1
  0.16, -4, -6.8, 33
- Cc1noc(C)c1NC(=O)Nc1cccc2c1O[C@@H](CN(C)C(=O)Nc1c(C)noc1C)[C@H](C)CN([C@H](C)CO)C2=O
  0.23, -21, ·, 0
- C[C@@H]1CN([C@H](C)CO)C(=O)c2cccc(NS(=O)(=O)c3ccc(Cl)cc3)c2O[C@@H]1CN(C)CC1CC1
  0.73, -28, ·, -20
- Cc1nc2ccccc2c(=O)n1NC(=O)/C=C/c1ccccc1
  -0.0049, -25, -1.3, -4
- COc1ccc(S(=O)(=O)Nc2ccc3c(c2)CC(=O)N([C@@H](C)CO)C[C@@H](C)[C@@H](CN(C)C(=O)NC(C)C)O3)cc1
  0.099, ·, 0.9, -3
- CC(=O)c1ccc(NC(=O)CSc2nc(=O)cc(N)n2-c2ccccc2)cc1
  ·, ·, 2.2, -112
- C[C@H]1CN([C@@H](C)CO)C(=O)c2cccc(NC(=O)c3ccncc3)c2O[C@@H]1CN(C)C(=O)Nc1ccc2c(c1)OCO2
  0.34, -16, -0.2, -3
- C[C@H](CO)N1C[C@H](C)[C@@H](CN(C)C)Oc2c(NC(=O)C3CCOCC3)cccc2C1=O
  -0.43, 10, 0.2, -7
- Cc1ccccc1NC(=O)CSc1ncnc2c1sc1nc(N3CCOCC3)c3c(c12)CCCC3
  ·, ·, -2.0, 15
- O=C1NC(=O)C(c2ccccc2[N+](=O)[O-])=C1Nc1ccc(O)c(Cl)c1
  -0.12, -10, ·, -45
- Cc1ccc(S(=O)(=O)N(C)C[C@@H]2Oc3c(NC(=O)Nc4ccccc4)cccc3C(=O)N([C@H](C)CO)C[C@@H]2C)cc1
  -0.51, 121*, -3.8, 32
- Cc1noc(C)c1S(=O)(=O)Nc1ccc2c(c1)CC(=O)N([C@H](C)CO)C[C@H](C)[C@H](CN(C)S(=O)(=O)c1ccc(Cl)cc1)O2
  0.17, 42, -1.9, -2
- Cc1noc(C)c1NC(=O)N(C)C[C@@H]1Oc2ccc(NC(=O)Cc3ccccc3)cc2CC(=O)N([C@H](C)CO)C[C@@H]1C
  -0.11, -27, ·, -1
- Cc1ccc(S(=O)(=O)N(C)C[C@H]2Oc3c(NS(=O)(=O)c4cccs4)cccc3C(=O)N([C@@H](C)CO)C[C@H]2C)cc1
  -0.45, 22, -0.8, 8
- Cc1cccc(NC(=O)c2ccc(OC(C)C(=O)Nc3ccccc3C(F)(F)F)cc2)c1C (stereo unspecified)
  ·, ·, -2.6, 46
- C=C1C(=O)O[C@@H]2/C=C(\C)[C@@H](OC(=O)C(O)C(C)C)C/C=C(/C)C[C@@H](OC(=O)/C(=C/CO)CO)[C@@H]12 (stereo partly specified)
  -0.13, -2, -23, -5
- C[C@@H]1CN([C@H](C)CO)C(=O)c2cc(NC(=O)NC3CCCCC3)ccc2O[C@@H]1CN(C)Cc1ccc(-c2ccccc2)cc1
  0.16, -23, ·, -12
- C[C@@H]1CN([C@H](C)CO)C(=O)c2cccc(NC(=O)Nc3cccc4ccccc34)c2O[C@H]1CN(C)C(=O)Nc1ccc(C(F)(F)F)cc1
  0.63, -20, ·, 23
- CC(Cc1c[nH]c2ccccc12)NC(N)=O (stereo unspecified)
  -0.29, -16, 0.0, 1
- Cc1ccc(S(=O)(=O)c2ccc(Cl)cc2)cc1S(=O)(=O)Nc1ccc(C(=O)O)cc1
  ·, ·, 2.7, -9
- CCOC(=O)C1=C(Cn2ccc(C(F)(F)F)n2)NC(=O)NC1c1cc(C)ccc1C (stereo unspecified)
  ·, ·, 2.2, 21
- CC1(C)CC(NC(=O)N2c3ccccc3CCc3ccccc32)CC(C)(C)N1
  -0.6, 8, -0.7, -4
- Cc1csc(NC(=O)CSc2nc(C34CC5CC(CC(C5)C3)C4)ccc2C#N)n1
  0.7, 75*, 0.9, 63

Part of the list above, with bars between the fields.
canonical_smiles | YB-1 expression | Shh pathway inh | PD-1 reversal | MITF inhib
COc1ccc(NC(=O)CSc2ncn(-c3ccccc3)n2)cc1Cl | · | · | 1.3 | -6
C[C@H]1CN([C@@H](C)CO)C(=O)Cc2cc(NC(=O)CCCCCC(=O)Nc3ccccc3N)ccc2O[C@@H]1CN(C)C | -0.99 | · | 1.6 | 4

Source: PubChem

A portion of the library; count on the stated rates, not on these rows.
